Compound activity (PubChem)
PKD1 inh: PKD1 (human) kinase inhibition | 200,000 tested, 0.056% active | AID 797 | inhibition, %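 (about 10 µM by stock and volumes)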 | PKD1 kinase fluorescence polarization assay | Q15139;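 active = inhibition of 50% or more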;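 also: controls were vehicle for no effect and a reference inhibitor for full effect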
RGS16-Gao: modulates binding between human RGS16 and Galphao. bead-based flow cytometry RGS16-Galphao binding, fluorescence; actives lie on both sides. AID 1441. 220,000 tested, 0.38% active. binding response (% of control), % at 10 µM;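 active = below 25% or above 175%, edge rows of some plates excepted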;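 also: Galphao activated by GDP with aluminum fluoride before binding; 100% = wells without compound and 0% = beads without RGS; some results beyond the cut were filed as inactive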
Target sequence (O15492 whole entry, looked up): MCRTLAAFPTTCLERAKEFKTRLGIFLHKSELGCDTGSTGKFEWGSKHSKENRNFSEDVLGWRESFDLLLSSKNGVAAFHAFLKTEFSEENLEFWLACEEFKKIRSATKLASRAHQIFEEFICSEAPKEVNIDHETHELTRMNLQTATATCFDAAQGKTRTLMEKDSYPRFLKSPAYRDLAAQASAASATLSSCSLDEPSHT
Target sequence (P09471 whole entry, looked up): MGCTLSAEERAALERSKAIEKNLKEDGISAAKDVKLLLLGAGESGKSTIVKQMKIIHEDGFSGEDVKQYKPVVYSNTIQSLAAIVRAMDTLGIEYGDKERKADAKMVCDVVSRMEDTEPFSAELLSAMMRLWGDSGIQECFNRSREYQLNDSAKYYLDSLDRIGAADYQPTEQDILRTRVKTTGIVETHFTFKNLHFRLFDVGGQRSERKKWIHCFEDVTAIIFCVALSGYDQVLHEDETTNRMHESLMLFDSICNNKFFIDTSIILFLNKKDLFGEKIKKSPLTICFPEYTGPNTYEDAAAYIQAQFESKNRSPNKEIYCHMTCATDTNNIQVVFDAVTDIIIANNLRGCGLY
HSV augment: HSV replication enhancement; 220,000 tested, 0.005% active; HSV replication augmentation in cells, fold increase; maximum fold increase;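 active = peak rise of 1.5-fold or more in the series; inconclusive = self-fluorescent or not available for retest; tested in PC3 cells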;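 also: first round at 10 µM; read as green reporter fluorescence; hits show the peak of a series up to 25 µM; 1 = signal of infected wells without compound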
GALR2 agonist: GALR2 (human) receptor agonism. O43603. GALR2-expressing cells, agonist activation read-out. activation, %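 (tested at 5 µM)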. 140,000 tested, 0.48% active. AID 803;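 active = above mean plus 3 SD of all compounds, about 5% in these data, not always enough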;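 also: 0% = vehicle buffer wells and 100% = reference agonist at full effect; tested in CHO reporter cells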
Target sequence (O43603 whole entry, looked up): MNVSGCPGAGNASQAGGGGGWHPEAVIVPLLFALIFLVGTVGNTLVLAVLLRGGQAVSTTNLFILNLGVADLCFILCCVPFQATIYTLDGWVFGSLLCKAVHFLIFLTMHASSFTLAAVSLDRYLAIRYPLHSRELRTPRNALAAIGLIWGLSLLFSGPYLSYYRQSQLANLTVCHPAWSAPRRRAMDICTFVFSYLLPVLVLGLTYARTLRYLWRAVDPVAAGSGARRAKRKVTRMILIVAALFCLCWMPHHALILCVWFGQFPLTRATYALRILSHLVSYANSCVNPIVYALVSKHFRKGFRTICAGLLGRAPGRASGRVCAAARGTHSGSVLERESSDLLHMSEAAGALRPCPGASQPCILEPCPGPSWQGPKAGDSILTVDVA
Insulin prom inh: TRM-6 insulin promoter activity inhibition; TRM-6 cells (human fetal islet line), insulin promoter-eGFP reporter, imaging; reporter expression induced with tamoxifen; inhibition, % at 2 µM; 130,000 tested, 0.9% active;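 active = inhibition above the mean plus 3 SD, with well images judged a real hit on visual review, cut at about 60% in these data, passing the limit was not always enough; inconclusive = inhibition over the cutoff but images rejected on review; inactive = inhibition not above the cutoff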
Insulin prom inh cell count: second read-out of Insulin prom inh, no call of its own (marks repeat the call); normalized cell count, %; measured here: cell count, toxicity; reference of the scale not given here;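 cells exposed to compound for 48 h; stained nuclei by imaging scaled within each plate; lower means fewer cells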
HSV augment primary fold: also measured in HSV augment; calls as there; fold increase; compound at 10 µM; measured here: primary screen fold increase 10 uM; tested in PC3 cells;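 GFP signal in the first replicate; 1 = infected wells without compound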
An asterisk follows results filed as active; i = inactive; ? = inconclusive; . = no result given.

SMILES | PKD1 inh | RGS16-Gao | HSV augment | HSV augment primary fold | GALR2 agonist | Insulin prom inh | Insulin prom inh cell count
O=C(Nn1cnnc1)c1cc(-c2ccccn2)nc2ccccc12 | -7 | 102 | i | 0.98 | -1.5 | 0 | 89
CSc1ccc(Cl)c(C(=O)OCC(=O)NCC(C)C)c1 | 0 | 104 | i | 1 | -1.5 | 51 | 87
Cn1c2c(c(=O)n(C)c1=O)C1(C(=O)Nc3ccccc31)C(C#N)=C(N)O2 (stereo not given) | 3 | 97 | i | 0.9 | -1.5 | -30 | 109
CCN(c1ccccc1)S(=O)(=O)c1ccc2[nH]cc(C(=O)N3CCOCC3)c(=O)c2c1 | -6 | 101 | i | 0.97 | -0.5 | -11 | 83
CCOC(=O)N/N=C1\CC(C)S(=O)(=O)c2ccc(Cl)cc21 (stereo not given) | . | 99 | i | 1.1 | . | . | .
O=C(NCCCl)c1ccc(OCc2ccccc2)cc1Cl | -4 | 99 | i | 0.97 | . | -50 | 47
CCCCNC(=S)N/N=C/c1ccc(C#N)cc1 | -5 | 98 | i | 0.9 | . | -42 | 60
CCOC(=O)C1C(=O)NC(N2CCN(Cc3ccccc3)CC2)=NC1c1ccco1 (stereo not given) | 10 | 104 | i | 0.78 | 0.0 | . | .
O=C(Nc1nc2ccc(S(=O)(=O)N3CCCC3)cc2s1)c1cccs1 | -6 | 105 | i | 0.87 | -1.6 | 20 | 134
O=C(CSc1nnc(C2CC2)n1-c1ccccc1)NCCN1C(=O)CSC1=O | -1 | 105 | i | 1 | . | . | .
O=C(CCC(=O)OCCCC(F)(F)C(F)(F)F)NC1CCCCC1 | -6 | -43 | i | 1.1 | -0.3 | 0 | 171
Cc1ccc(S(=O)(=O)N2CCN(C(=O)c3ccccc3)CC2)c(C)c1NS(C)(=O)=O | -6 | 98 | i | 0.9 | . | . | .
Cn1ncc([N+](=O)[O-])c1C(=O)N/N=C/c1c[nH]c2ccccc12 | 0 | 102 | i | 0.88 | . | . | .
CCc1ccc(NC(=O)CCc2nc3ccccc3[nH]2)cc1 | -4 | 108 | i | 1 | . | -64 | 66
CCOc1ccc(-n2c(=O)c3c4c(sc3n(CC(=O)NCCCOC)c2=O)CCCCC4)cc1 | -6 | 98 | i | 0.83 | . | . | .
CN1CCN(CCCNC(=O)c2ccc(/C=C3\Sc4ccccc4N(Cc4ccccc4F)C3=O)cc2)CC1 | 1 | 103 | i | 0.78 | . | -15 | 132
O=c1c2c3c(sc2ncn1-n1cccc1)CCCCC3 | 6 | 103 | i | 0.76 | -1.0 | 56 | 57
Cc1ccc(Cc2cnc(NC(=O)/C(C#N)=C/c3ccc(-c4ccc([N+](=O)[O-])cc4)o3)s2)cc1 | -2 | 112 | i | 0.84 | 1.4 | 41 | 103
C=CCS(=O)(=O)N1CCC(CCOc2ccccc2)(C(=O)OCC)CC1 | -3 | 101 | i | 1 | . | . | .
O=[N+]([O-])c1ccccc1CSc1ccccn1 | . | 100 | i | 1.3 | . | . | .
O=C1C=C(O)C(n2cncn2)C(c2cc(F)ccc2F)C1 (stereo not given) | -1 | 98 | i | 0.95 | . | . | .
CCOC(=O)CSc1nnc(CNC(=O)c2cc(OCC)c(OCC)c(OCC)c2)n1C | -5 | 66 | i | 1.1 | -1.7 | . | .
CN1CCCC(OC(=O)COc2ccc(Br)cc2)C1 (stereo not given) | -5 | 99 | i | 0.99 | -1.6 | -80 | 106
O=C(N/N=C/C1CC=CCC1)c1ccccc1O (stereo not given) | -2 | 104 | i | 1 | -4.5 | -6 | 110
CC(C)C(NC(=S)NCc1ccccc1)C(=O)O (stereo not given) | -4 | 103 | i | 1 | -1.1 | 33 | 80
Cc1ccc(N2C(=O)CCC2(C#N)c2ccccc2)cc1 (stereo not given) | . | 98 | i | 0.99 | . | . | .
COc1cc(NC(=S)Nc2ccc3c(c2)OCCO3)cc(OC)c1OC | . | 91 | i | 0.98 | . | . | .
CC(C)CN1CCN(Cc2cnc(N3CCOCC3)s2)CC1CCO (stereo not given) | -1 | 93 | i | 0.97 | . | . | .
Cc1cccc(NS(=O)(=O)c2ccc(Br)s2)n1 | -3 | 105 | i | 0.95 | -2.0 | 50 | 127
O=C(COC(=O)Cn1[nH]c(=O)c2ccccc2c1=O)Nc1ccc2c(c1)OCO2 | -6 | 121 | i | 1 | -1.9 | 15 | 41
COCCNCCOc1ccc(C)cc1[N+](=O)[O-] | -1 | 101 | i | 1 | . | . | .
CCOC(=O)C1(CCOc2ccccc2)CCN(Cc2ccc(C)o2)CC1 | -9 | 103 | i | 1.1 | . | 0 | 76
Cc1csc(NC(=O)C2CC(=O)N(Cc3ccco3)C2)n1 (stereo not given) | -6 | 97 | i | 1.1 | . | . | .
Cc1ccc(N2C(=O)CS/C2=C(\C(Cl)=C(Cl)Cl)[N+](=O)[O-])cc1 | -2 | 101 | i | 1.2 | -3.0 | -161 | 128
Oc1c(C(c2ccc(Cl)cc2)N2CCCC2)cc(Cl)c2cccnc12 (stereo not given) | 1 | 96 | i | 0.91 | . | . | .
CC(C)c1ccccc1NC(=O)Cn1c(/C=C/c2ccccc2)nc2ccccc21 | . | 105 | i | 0.68 | . | . | .
O=C1CN(C(=O)c2cc3ccccc3oc2=O)C(c2ccc(F)cc2)c2cc(Br)ccc2N1 (stereo not given) | 2 | . | . | . | -0.2 | -38 | 88
CCOC(=O)c1cnn(-c2ccccc2)c1-n1cccc1C(=O)C(=O)N(CC)CC | 8 | 111 | i | 0.9 | . | 5 | 69
CC(=O)OC(C(=O)NC1CCCCC1)c1ccccc1F (stereo not given) | 0 | 94 | i | 0.91 | . | . | .
CCOC(=O)C1C(=O)Nc2nc3ccccc3n2C1C(C)C (stereo not given) | 2 | 100 | i | 0.86 | 0.1 | -43 | 146
CC(C)(C)c1ccc(-c2cnco2)cc1 | -8 | 106 | i | 0.99 | . | . | .
O=C(/C=C/c1ccc2ccccc2n1)N1CCN(c2ccccc2)CC1 | 0 | 96 | i | 1 | . | . | .
Cc1ccc2[nH]c(=O)c(CN(CCCN(C)C)C(=O)Nc3ccc(Cl)cc3)cc2c1 | -7 | 103 | i | 0.6 | -0.1 | -14 | 189
CCCCC(=O)Nc1ccc(Br)cn1 | -2 | 99 | i | 0.99 | -3.9 | -8 | 108
COc1cccc(CN2C(=O)c3cccc(N)c3C2=O)c1 | -2 | 99 | i | 1.1 | 1.9 | 30 | 123

Taken from above:
CSc1ccc(Cl)c(C(=O)OCC(=O)NCC(C)C)c1 – Insulin prom inh cell count: 87
Oc1c(C(c2ccc(Cl)cc2)N2CCCC2)cc(Cl)c2cccnc12 (stereo not given) – HSV augment primary fold: 0.91
CCOC(=O)C1C(=O)Nc2nc3ccccc3n2C1C(C)C (stereo not given) – Insulin prom inh cell count: 146
CC(C)c1ccccc1NC(=O)Cn1c(/C=C/c2ccccc2)nc2ccccc21 – HSV augment primary fold: 0.68
CCOC(=O)C1(CCOc2ccccc2)CCN(Cc2ccc(C)o2)CC1 – RGS16-Gao: 103

Remaining list, next part
SMILES | PKD1 inh | RGS16-Gao | HSV augment | HSV augment primary fold | GALR2 agonist | Insulin prom inh | Insulin prom inh cell count
O=C(CSc1nnc2scc(-c3ccccc3)n12)Nc1ccc2c(c1)OCCO2 | -6 | 102 | i | 0.96 | -1.9 | 8 | 118
Cc1nnc2n(Cc3ccccc3)c(=O)c3c4c(sc3n12)COC(C)(C)C4 | -5 | 102 | i | 0.87 | -0.2 | . | .
Clc1ccccc1OCCn1cnc2ccccc21 | 10 | 94 | i | 0.87 | -0.9 | . | .
CCOC(=O)CSc1nc2cc3c(cc2cc1C#N)OCO3 | -1 | 100 | i | 0.96 | -3.1 | . | .
CCOC(=O)c1ccc(NC(=O)CSc2nnc(COc3ccccc3)n2C)cc1 | 1 | 102 | i | 0.88 | -0.5 | -75 | 61
CCOCCCNC(=S)NCCNc1nc2ccc(C)cc2cc1C#N | 2 | 103 | i | 0.9 | -0.7 | . | .
COc1ccc(C2C3=C(CCCC3=O)Nc3c(-c4ccccc4)c(C)nn32)cc1 (stereo not given) | -9 | 86 | i | 1.1 | -1.1 | -38 | 109
COc1cc2c(cc1OC)N1C(=O)CC(OCC(=O)O)C3C4CC5(CCN5C(=O)C4=O)C2C31 (stereo not given) | 0 | 109 | i | 0.97 | . | -44 | 92
COC(=O)[C@@H](NC(=O)O[C@@H]1C(=O)c2ccc(OC)cc2O[C@H]1c1cccc(C(F)(F)F)c1)C(C)C | 4 | 96 | . | . | -1.0 | -35 | 101
Nc1nc(-c2ccccc2)cc(C(F)(F)F)n1 | 1 | 102 | i | 0.92 | -2.7 | -119 | 92
COC(=O)c1ccc(C(=O)OC)c(NC(=O)C(C)C)c1 | -3 | 69 | i | 1 | . | . | .
CCc1nnc(NS(=O)(=O)c2ccc(NC(=O)c3cc4ccccc4oc3=O)cc2)s1 | -6 | 104 | i | 1.1 | -0.8 | . | .
CC(=O)C1=C(O)C(=O)N(CCO)C1c1ccccc1 (stereo not given) | -4 | 98 | i | 1.1 | . | -8 | 82
Cc1ccc(C(=O)N(Cc2ccccc2)C(C)(C)C)cc1C | 2 | 46 | i | 1.2 | -0.6 | 7 | 81
CCCCc1ccc(-c2csc(/C(C#N)=C/c3ccc(C)o3)n2)cc1 | -1 | 103 | i | 1.1 | -0.9 | -8 | 120

Ordered by heavy-atom count (highest first): 4 of the compounds above.
SMILES | PKD1 inh | RGS16-Gao | HSV augment | HSV augment primary fold | GALR2 agonist | Insulin prom inh | Insulin prom inh cell count
CCc1nnc(NS(=O)(=O)c2ccc(NC(=O)c3cc4ccccc4oc3=O)cc2)s1 | -6 | 104 | i | 1.1 | -0.8 | . | .
COc1ccc(C2C3=C(CCCC3=O)Nc3c(-c4ccccc4)c(C)nn32)cc1 (stereo not given) | -9 | 86 | i | 1.1 | -1.1 | -38 | 109
CCOCCCNC(=S)NCCNc1nc2ccc(C)cc2cc1C#N | 2 | 103 | i | 0.9 | -0.7 | . | .
CCCCc1ccc(-c2csc(/C(C#N)=C/c3ccc(C)o3)n2)cc1 | -1 | 103 | i | 1.1 | -0.9 | -8 | 120

(cont.)
SMILES | PKD1 inh | RGS16-Gao | HSV augment | HSV augment primary fold | GALR2 agonist | Insulin prom inh | Insulin prom inh cell count
O=S(=O)(c1ccccc1)N1CCn2c(nc3ccccc32)C1 | -11 | 159 | i | 0.95 | 0.4 | . | .
Cc1onc(-c2ccccc2)c1C(=O)/C=C/N(C)C | . | 102 | i | 1.1 | . | . | .
COc1cccc(C(=O)CSc2nnc(-c3cc(OC)c(OC)c(OC)c3)o2)c1 | 0 | 102 | i | 0.73 | 1.4 | . | .
COc1ccc2[nH]c3c(=O)n(Cc4ccco4)cnc3c2c1 | 0 | 67 | ? | . | -0.9 | . | .
CSCCC1COC(c2cccs2)=N1 (stereo not given) | 1 | 100 | i | 1.1 | . | 35 | 91
COc1cccc(-c2nc(NCc3ccco3)c3ccccc3n2)c1O | -3 | . | ? | . | 1.1 | -5 | 94
COCc1ccc(CN2CCCC(CCC(=O)NCc3cccc(OC)c3)C2)o1 (stereo not given) | -1 | 104 | i | 1 | . | 0 | 99
CC(=O)c1cccc(NC(=O)C2CCN(S(C)(=O)=O)CC2)c1 | 0 | 104 | i | 0.86 | -2.9 | 11 | 125
c1ccc(N2OCC3Cn4c(nc5ccccc54)C32)cc1 (stereo not given) | . | 99 | i | 0.96 | . | . | .
CCn1nccc1C(=O)Nc1nc2ccccc2n1CCN1CCCCC1 | -12 | 100 | i | 1 | 0.1 | -67 | 95
CC(C)Oc1ccc(C2CNC(=O)C2)cc1 (stereo not given) | -7 | 103 | i | 1 | . | . | .
CCOC(=O)c1sc2nc(C)nc(N3CCCCC3C)c2c1C (stereo not given) | 0 | 103 | . | . | . | 46 | 116
O=C(Nc1cccc(Cl)c1)N1CCN(c2ncccn2)CC1 | -7 | 104 | i | 0.87 | -0.4 | -26 | 122
Cn1cc(CN2CCc3c([nH]c4ccccc34)C2C2CCCCC2)cn1 (stereo not given) | 0 | 99 | i | 0.94 | . | -62 | 89
Cn1c2c(c(=O)c3ccccc31)CCC(C)(C)O2 | -3 | 105 | i | 0.98 | 0.1 | 23 | 109
CC(=O)Nc1ccc(N/C(N)=N/c2nc(C)cc(C)n2)cc1 | -3 | 96 | i | 0.84 | . | . | .
FC(F)(F)c1cnc(N2CCCN(C(=S)Nc3ccccc3)CC2)c(Cl)c1 | . | 93 | i | 1.2 | . | . | .
Cc1ccc2nc(NC(=O)CC3Oc4ccccc4NC3=O)sc2c1 (stereo not given) | . | 116 | i | 1 | . | . | .
CC1=CC(C)(C)N=C(Nc2ccc(C)cc2)S1 | -6 | 104 | i | 0.93 | -0.8 | 19 | 108
c1ccc(CN2CCC3(CC2)Nc2ccccc2CO3)cc1 | 3 | 94 | i | 1 | -2.0 | 62 | 87
